From PubChem BioAssay
TSHR ag = TSH receptor (human) agonism; P16473; HEK293-CNG-TSHR cells (CNG channel as cAMP sensor), membrane potential dye, cAMP; Potency, µM (titrated, usually from 57.1 µM), for the others: at the top dose activation, actives largely listed as activators; 73,000 tested, 0.48% active; active = well fitted activation curve of enough size with the parental cells flat; inconclusive = any curve in the parental cells; inactive = parental cells flat and receptor cells flat or falling; further: potency means the concentration at half of the fitted maximal effect; % of control where 0% means no effect; weak receptor curves with flat parental cells got no call and are not listed
Target sequence (P16473 whole entry, looked up): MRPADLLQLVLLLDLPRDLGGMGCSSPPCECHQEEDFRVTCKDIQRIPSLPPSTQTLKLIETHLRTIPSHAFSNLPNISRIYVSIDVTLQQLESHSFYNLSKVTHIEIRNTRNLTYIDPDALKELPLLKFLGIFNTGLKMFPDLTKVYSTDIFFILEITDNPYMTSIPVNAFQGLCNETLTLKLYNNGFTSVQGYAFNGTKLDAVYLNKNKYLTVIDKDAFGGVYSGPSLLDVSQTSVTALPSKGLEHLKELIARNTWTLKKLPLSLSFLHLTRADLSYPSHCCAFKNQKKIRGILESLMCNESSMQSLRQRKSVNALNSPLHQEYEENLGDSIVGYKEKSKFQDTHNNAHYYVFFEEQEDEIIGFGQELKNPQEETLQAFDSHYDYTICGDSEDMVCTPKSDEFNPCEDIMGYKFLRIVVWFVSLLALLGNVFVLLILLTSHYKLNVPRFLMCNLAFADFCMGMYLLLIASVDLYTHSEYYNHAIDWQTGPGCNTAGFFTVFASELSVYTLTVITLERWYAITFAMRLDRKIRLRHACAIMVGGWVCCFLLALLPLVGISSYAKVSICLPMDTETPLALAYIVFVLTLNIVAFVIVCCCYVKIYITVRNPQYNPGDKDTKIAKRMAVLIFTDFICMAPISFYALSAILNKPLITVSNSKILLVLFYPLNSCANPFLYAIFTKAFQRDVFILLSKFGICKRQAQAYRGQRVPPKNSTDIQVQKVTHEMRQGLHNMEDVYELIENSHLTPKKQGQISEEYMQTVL
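cAMP rise detected as CNG-channel membrane depolarization by fluorescent dye (emission 590 nm), 30 min after compound, following 60 min dye loading containing 100 uM RO 20-1724 at room temperature. Cells: TSHR/CNG HEK 293, with parental CNG HEK 293 as control.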
Resorufin autofl = compound fluoresces in the resorufin spectral region. Compound fluorescence, resorufin region 547/598 nm, buffer; hits give high values. max dye-equivalent concentration, M. 59,000 tested, 0.04% active. AID 588; active = above 10 nM dye equivalent; inconclusive = 1 to 10 nM; inactive = 1 nM or less; a few of its hits are not listed in these tables; further: highest value over a series up to 38 µM
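Dye-equivalent concentration values derive from comparing each well's 547/598 nm fluorescence against resorufin standards included on every plate. Incubation was 15 min at room temperature in 100 mM Tris, pH 8.0.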
AID923 = qHTS Assay for Allosteric/Competitive Inhibitors of Caspase-1: Spectroscopic Profiling in AFC Spectral Region; AID 923, 2007; compound fluorescence, AFC spectral region (405/520 nm); almost no hit is shown here; Potency, µM (top dose mostly 57.5 µM), for the others: at the highest dose fluorescence increase, most hits filed as activators; 75,000 tested, 1.1% active; active means well fitted activation curve with a large enough effect; inconclusive means small, poorly fitted or top-dose-only effect;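 further: potency means the concentration at half of the fitted maximal effect; 0% is about no effect; scaled to a free AFC standard on each plate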
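Titrations up to 57 uM read every 20 sec for 3 min (405/520 nm) with 50 nM caspase 1 and 5 uM Ac-WEHD-AFC, pH 7.5 HEPES buffer. Fluorescence-vs-time intercept gave baseline, scaled against on-plate AFC standard.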
A647 autofl = A647 region autofluorescence. Compound fluorescence, A647 channel (570/671 nm), Tris buffer. 59,000 tested, under 10 active. max dye-equivalent concentration, M; active means above 1 µM dye equivalent; inconclusive means 0.1 to 1 µM; inactive means 0.1 µM or less;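 further: values scaled relative to a standard on each plate; highest value over a series up to 38 µM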
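Spectral profiling of library compounds in pH 8.0 Tris: 15 min room-temperature incubation, single ex/em pair (570/671 nm), response normalized to Alexa 647 equivalents.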
A488 fluor = compound fluoresces in the A488 spectral region. compound autofluorescence, A488 spectral region, dye equivalency; hits give high values. max dye equivalency, M. 59,000 tested, 0.1% active. AID 591; active = above 10 nM dye equivalent; inconclusive = 1 to 10 nM; inactive = 1 nM or less; about half of its hits are not listed in these tables;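 further: highest value over a series up to 38 µM; compound alone in buffer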
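Spectroscopic profiling in the A488 region: compounds in pH 8.0 Tris (100 mM), 15 min RT, CCD imaging with 480 nm excitation and 540 nm emission; responses normalized against A488 dye standards.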
* marks the source's active call; other numbers are inactive results; i = inactive; ? = inconclusive; / = not tested or not shown; & = joins results of further samples; [ ] = another dose, or the depositor's remark.

The opening 5 entries (preview)
SMILES | TSHR ag | Resorufin autofl | AID923 | A647 autofl | A488 fluor
O=c1[nH]c2ccccc2c(=O)n1-c1cccc(Cl)c1 | / | i | / | 1.6e-09 | i
Cc1ccc(-c2nc(CS(=O)CC(=O)N3CCC4(CC3)OCCO4)c(C)o2)cc1 (centres undefined) | ? | i | -1.2% | 2.8e-08 | i
CCCCC(=O)Cl | -6% | / | 2.2% | / | /
O=C(CCN1CCOCC1)NCC(=O)Nc1ccc(Br)cc1C(=O)c1ccccc1 | 3% | i | -0.5% | 5.2e-08 | i
COc1cc(/C=N/n2cnnc2)ccc1OC(=O)N(C)C | 8% | i | -0.4% | 1.7e-08 | i

All compounds of this part, from the start:
SMILES | TSHR ag | Resorufin autofl | AID923 | A647 autofl | A488 fluor
O=c1[nH]c2ccccc2c(=O)n1-c1cccc(Cl)c1 | / | i | / | 1.6e-09 | i
Cc1ccc(-c2nc(CS(=O)CC(=O)N3CCC4(CC3)OCCO4)c(C)o2)cc1 (centres undefined) | ? | i | -1.2% | 2.8e-08 | i
CCCCC(=O)Cl | -6% | / | 2.2% | / | /
O=C(CCN1CCOCC1)NCC(=O)Nc1ccc(Br)cc1C(=O)c1ccccc1 | 3% | i | -0.5% | 5.2e-08 | i
COc1cc(/C=N/n2cnnc2)ccc1OC(=O)N(C)C | 8% | i | -0.4% | 1.7e-08 | i
Cc1ccc(Cl)cc1-n1c(O)c(C=NCCCN2CCOCC2)c(=O)[nH]c1=O | -1% | i | 6.9% | 1e-09 | i
Cc1cc(C)cc(C(=O)OC2C[C@H]3CC[C@@H](C2)N3C)c1 (some centres undefined) | 26% | / | -0.7% | / | /
O=C1CCCN1CC#CCN1CCCC1 | 10%&15% | i | -2.3%&-1.1%&0.1% | 1e-09 | i
CCN(CC)c1ncnc2c1ncn2[C@@H]1O[C@@H](COP(=O)(O)OP(=O)(O)C(Br)(Br)P(=O)(O)O)[C@H](O)[C@@H]1O | 8% | i | -3.8% | 5.3e-08 | i
CCCCCCCCCCCOC(=O)c1ccccc1C(=O)OCCCCCCCCCCC | ? | / | 2.2% | / | /
NC(N)=NOCC[C@H](N)C(=O)O | ? | i | 0.3% | 3.6e-08&5.4e-08 | i
Cc1oc(-c2ccccc2F)nc1CS(=O)CC(=O)N1CCC2(CC1)OCCO2 (centres undefined) | 1%[11.4 µM] | i | -0.8% | 2.6e-08 | i
O=C(c1cc(S(=O)(=O)N2CCOCC2)ccc1F)N1CCC2(CC1)OCCO2 | 8% | i | -1.0% | 1e-09 | i
COc1ccc2c(c1)CC1(CN2C)C(=O)NC(=O)N(CCc2ccccc2)C1=O (centres undefined) | -4% | i | 15% | 3.9e-08 | i
Nc1cc(Cl)ccc1O | -19% | / | 3.1% | / | /
CCC(=O)c1cn(Cc2ccccc2C#N)c2ccccc12 | ? | i | 0.4% | 1e-09 | i
Cc1ccc2c(c1)N(CCC(=O)N1CCC3(CC1)OCCO3)C(=O)CO2 | 7% | i | 2.1% | 1e-09 | i
CCOc1ccccc1C1SCC(=O)Nc2c1c(=O)[nH]n2C(CC)CC (centres undefined) | 15% | i | -1.5% | 7.2e-09 | i
CC(=O)[C@H]1CC[C@H]2[C@@H]3CCC4=CC(=O)CC[C@]4(C)[C@H]3CC[C@]12C | ? | i | 4.1%&0.4%&0.1% | 7.8e-09 | i
COc1ccc(C(=O)N2CCCC2=O)cc1 | 1%&6%&5% | i | -1.3%&-2.0%&13% | 8.2e-09&2.5e-08&1e-09 | i
CCC(=Nc1ccc2c(c1)CCC2)c1c(O)n(C2CCCCC2)c(=O)[nH]c1=O | 8% | i | -0.4% | 6.7e-09 | i
O=c1[nH]cnc2[nH]cc(CN3CCCCC3)c12 | 6%[11.4 µM] | i | 2.1%[11.5 µM] | 8.8e-09 | i
C=C[C@]12CN(C)[C@H]3C1[C@@]1(C(=O)Nc4ccccc41)[C@H]1C[C@H]2[C@H]3CO1 | 22%[25.6 µM] | i | -1.0%[25.7 µM] | 1.8e-09 | i
CSC(=Nc1ccccc1)c1c(O)n(C)c(=O)n(C)c1=O | -12% | i | 1.2% | 3.1e-08 | i
COc1cc(=O)[nH]c(SCc2c(F)c(F)c(F)c(F)c2F)n1 | ? | i | -0.7% | 1.3e-09 | i
CCCCOCCCn1c(N)c(C(=O)OC(C)COC)c2nc3ccccc3nc21 (centres undefined) | / | i | / | 1e-09 | i
O[C@@H](Cc1ccncc1)C(Cl)(Cl)Cl | 0% | / | -2.4% | / | /
Cc1cccc(-n2c(-c3ccco3)nc3ccccc3c2=O)n1 | 9% | / | 4.1% | / | /
CCN(CC)N=O | ? | / | -0.2% | / | /
Oc1ccc2c3c1O[C@@H]1c4[nH]c5c(c4C[C@@]4(O)[C@@H](C2)N(CC2CC2)CC[C@]314)C[C@]1(O)[C@@H]2Cc3ccc(O)c4c3[C@@]1(CCN2CC1CC1)[C@H]5O4 | ? | i | -0.7% | 1.9e-09 | i
Cn1c(O)c(C=NCCOc2ccc(Cl)cc2)c(=O)n(C)c1=O | 4% | / | -0.9% | / | /
CCOC(=O)N(c1ccccc1)P1(=S)OCC(C)O1 (centres undefined) | 2% | i | 1.5% | 1e-09 | i
Cc1ccc(NC(=[OH+])c2cc3ccccc3cc2O)c(C)c1.Cc1ccc(NC(=[OH+])c2cc3ccccc3cc2O)c(C)c1.[Ni] | -4%[11.4 µM] | i | -3.5%[11.5 µM] | 1.8e-09 | i
CCOC(=O)c1[nH]c(C)c(C(=O)N2CCC3(CC2)OCCO3)c1C | 4%[11.4 µM] | i | 0.3% | 1e-09 | i
S=C(c1ccc(Cl)cc1)N1CCOCC1 | ? | / | 3.4% | / | /
C=C(Cl)Cl | -4% | / | 4.5% | / | /
CCOC(OCC)P(=O)(O)CCCN | -1% | / | -3.4% | / | /
CN(C)CP(=O)(O)CN(C)C=O | 0% | i | 1.0% | 1e-09 | i
CC(=NCCO)c1c(O)n(C2CCCCC2)c(=O)[nH]c1=O | -6% | i | -0.6% | 2.7e-08 | i
O=C(Cc1ccccc1)OCCN1CCCCC1 | 7% | i | 0.2% | 1.2e-09 | i
COc1cc2c(cc1OC)-c1c(OC)c(OC)cc3c1C(C2)N(C)CC3 (centres undefined) | 21% | / | 6.5% | / | /
CC1(c2ccccc2)NCCN2C(=O)CSC21 (centres undefined) | / | i | / | 1e-09 | i
ClCC1CO1 (centres undefined) | -1% | / | 0.8% | / | /
C=CCn1c(O)c(C(C)=Nc2ccc(NC(C)=O)cc2)c(=O)[nH]c1=O | 1% | i | -1.0% | 2.5e-08 | i
CC[C@@]12CCCN3CC[C@@]4(c5ccc(OC)c(O)c5N(C(C)=O)[C@H]4CC1)[C@H]32 | 4% | i | / | 1e-09 | i
CCN1CCN(c2ncnc3ccc(Br)cc23)CC1 | 0% | i | -0.3% | 1e-09 | i
O=C(CCl)c1ccc(Cl)cc1Cl | 5% | / | -0.1% | / | /
C=CCn1c(O)c(C(C)=NCCCO)c(=O)[nH]c1=O | 2% | i | -2.8% | 2.1e-08 | i
S=C=Nc1cccc2ccccc12 | 13% | / | 4.7% | / | /
CN1[C@@H]2CC[C@H]1CC(O[C@@H](c1ccccc1)c1ccccc1N)C2 (some centres undefined) | 21% | i | -3.2% | 7e-09 | i

3 records picked at random from those above, as already listed:
SMILES | TSHR ag | Resorufin autofl | AID923 | A647 autofl | A488 fluor
CC[C@@]12CCCN3CC[C@@]4(c5ccc(OC)c(O)c5N(C(C)=O)[C@H]4CC1)[C@H]32 | 4% | i | / | 1e-09 | i
COc1cc2c(cc1OC)-c1c(OC)c(OC)cc3c1C(C2)N(C)CC3 (centres undefined) | 21% | / | 6.5% | / | /
C=CCn1c(O)c(C(C)=NCCCO)c(=O)[nH]c1=O | 2% | i | -2.8% | 2.1e-08 | i

Continued:
SMILES | TSHR ag | Resorufin autofl | AID923 | A647 autofl | A488 fluor
c1cc(CN2CC3(CCNCC3)C2)ccn1 | -1% | i | 2.6% | 1e-09 | i
C[C@H](N)Cc1c[nH]c2ccc(O)cc12 | 1%&3% | i | -0.4%&0.3% | 1e-09 | i
N=C(N)n1cc(/C=N\N=C(N)N)cn1 | -3%[11.4 µM] | i | -2.7%[11.5 µM] | 4.2e-08 | i
CC(C)CN1CCC2(CC1)CCN(S(C)(=O)=O)CC2 | 5% | i | 1.3% | 5.2e-09 | i
C=C[C@@H]1C[C@@]1(C)[C@@H](NP(=O)(c1ccccc1)c1ccccc1)c1ccccc1 | ? | / | 1.1% | / | /
CCCOc1ccccc1C1SCC(=O)Nc2c1c(=O)[nH]n2C(C)CCC (centres undefined) | / | i | -0.3% | 9e-09 | i
CCCN(CCC)[C@@H]1CCc2cccc(O)c2C1 | ? | i | -1.3%&0.0%&-0.5%&-2.8% | 4.4e-09&3.3e-08 | i
O=C(O)/C=C\c1ccc[c]([Sb](=[O])([OH])[OH])c1 | -7%[11.4 µM] | i | -0.2%[11.5 µM] | 1e-09 | i
C[C@@]12CC(=O)[C@H]3[C@@H](CCC4=CC(=O)CC[C@]43C)[C@H]1CCC2=O | -3%[25.6 µM] | i | -1.5%[25.7 µM] | 2.9e-08 | i
[O-][n+]1onc2c1CCC1N(O)CCC21O (centres undefined) | ? | i | -1.7% | 9.7e-09 | i
CC1(C)N(O)C2CCCCC2N1O (centres undefined) | -2% | i | 0.4% | 2.9e-08 | i
CCCCn1c(O)c(C(C)=NCCCN(CC)CC)c(=O)[nH]c1=O | 1% | i | 2.1% | 3.4e-09 | i
C[C@@H]1C[C@@H]([C@H](O)CC2CC(=O)NC(=O)C2)C(=O)[C@@H](C)C1 | -5%&-4% | / | -7.7%&-1.7% | / | /
O=C(CN1C(=O)CN=C(c2ccccc2)c2ccccc21)NCc1ccco1 | -2% | i | 0.4% | 2.6e-08 | i
O=C(c1ccco1)C12CN3CN(CN(C3)C1)C2 | / | i | / | 6.6e-09 | i
O=C(Nc1cccc(F)c1)N1CCC2(CC1)CCN(C(=O)Oc1ccccc1)CC2 | 9% | i | 6.7% | 1e-09 | i
CN=C(SCc1cc2c(cc1Cl)OCO2)c1c(O)n(C)c(=O)n(C)c1=O | 8% | i | 0.0% | 1.5e-08 | i
COc1cccc(-n2nc(C(=O)N3CCC4(CC3)OCCO4)c3ccccc3c2=O)c1 | 5% | i | -0.9% | 4.3e-08 | i
CCNC(=O)[C@@H]1O[C@@H](n2cnc3c(N)ncnc32)[C@H](O)[C@H]1O | ? | / | -1.6% | / | /
CN1C(=O)C(C2c3ccccc3C(=O)N2Cc2ccccc2)C(=O)N(C)C1=O (centres undefined) | / | i | -1.3% | 1e-09 | i
C[N+]1(C)CCc2cc3c(cc2[C@@H]1[C@@H]1OC(=O)c2c1ccc1c2OCO1)OCO3 | -3% | i | 6.8% | 3.2e-09 | i
N[C@]1(C(=O)O)CC[C@@H](C(=O)O)C1 | / | i | / | 1.6e-08 | i
Cc1ccc2c(c1)CC1(CN2C)C(=O)NC(=O)N(c2ccc(C)c(C)c2)C1=O (centres undefined) | 11% | i | 3.2% | 3.3e-09 | i
Cc1cccc(NC(=O)N[C@@H]2N=C(c3ccccc3)c3ccccc3N(CC(=O)c3ccccc3C)C2=O)c1 | ? | / | 0.1% | / | /
Nc1c(C(=O)Nc2ccc([As](=O)(O)O)cc2)cnc2nnnn12 | -2%[11.4 µM] | i | 0.2%[11.5 µM] | 5.3e-08 | i
O=c1[nH]c(=O)n(Cc2ccc(F)cc2)c(O)c1C=NCc1cccnc1 | -11% | i | 2.5% | 1e-09 | i
Cn1c(O)c(C(=O)c2ccccc2Cl)c(=O)n(C)c1=O | / | i | / | 1e-09 | i
C[C@H](CN(C)C)C(C#N)(c1ccccc1)c1ccccc1 | 1%[11.4 µM] | i | 1.5%[11.5 µM] | 1.5e-09 | i
CC12CC(c3ccccc3O1)C(C(=O)OCc1ccccc1)C(=O)N2 (centres undefined) | 5% | i | 0.7% | 1e-09 | i

Only part of the results is shown (hit frequency here may not be typical).
